TRPML1 agonist = agonists of human TRPML1 channel | 410,000 compounds, 0.12% hits | Q9GZU1 | TRPML1-expressing cells, Ca2+ dye fluorescence, FDSS; host cell line not named in the record; reference of the full effect not given here | AID 624414 | activation, % (no concentration beside the values); in the data active = activation above about 50%; inconclusive = about 30% to 50%; inactive = below about 30%; also: 0% is about no effect; the text of the record puts the active cut at 80%
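TRPML1-DL cells, Tet-induced overnight (~16 h, 37 degrees C), loaded 45-90 min at room temperature with Ca8 no-wash calcium dye plus quencher. FDSS fluorescence: 10 s baseline, compound pin-transfer, 110 s agonist read, then EC80 54-4 (4uM final) and 110 s antagonist read.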
D2 agonist = activates the human D2 dopamine receptor; P14416; DiscoveRx PathHunter D2 beta-arrestin, luminescence, 90 min; 100% = 57 uM dopamine signal; AID 624465; activation, % (no concentration beside the values); 360,000 compounds, 0.084% hits; in the data active = activation above about 40%; inconclusive = about 15% to 40%; inactive = below about 15%; also: compound concentration not given in the record; the text of the record calls up to 30% inactive
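Agonist mode: compounds alone added to overnight-plated D2 PathHunter cells for 90 min at 37 C, with 57 uM final dopamine (EC100) defining full response. Beta-arrestin recruitment detected by chemiluminescent reagent, read after 1 h at ambient temperature.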
Six1-Eya2 blk = blocks human Six1 binding to Eya2; activity change, % (no concentration beside the values); AlphaScreen GST-Six1/His-Eya2 binding, biochemical; hits give low values; control for the full effect not named in the record; AID 651725; 360,000 compounds, 0.56% hits; in the data active = activity change below about -65%; inconclusive = about -30% to -65%; inactive = above about -30%; also: % is scaled to controls: 0 for no effect and ±100 for the full control effect
Target sequence (O00167 whole entry, looked up): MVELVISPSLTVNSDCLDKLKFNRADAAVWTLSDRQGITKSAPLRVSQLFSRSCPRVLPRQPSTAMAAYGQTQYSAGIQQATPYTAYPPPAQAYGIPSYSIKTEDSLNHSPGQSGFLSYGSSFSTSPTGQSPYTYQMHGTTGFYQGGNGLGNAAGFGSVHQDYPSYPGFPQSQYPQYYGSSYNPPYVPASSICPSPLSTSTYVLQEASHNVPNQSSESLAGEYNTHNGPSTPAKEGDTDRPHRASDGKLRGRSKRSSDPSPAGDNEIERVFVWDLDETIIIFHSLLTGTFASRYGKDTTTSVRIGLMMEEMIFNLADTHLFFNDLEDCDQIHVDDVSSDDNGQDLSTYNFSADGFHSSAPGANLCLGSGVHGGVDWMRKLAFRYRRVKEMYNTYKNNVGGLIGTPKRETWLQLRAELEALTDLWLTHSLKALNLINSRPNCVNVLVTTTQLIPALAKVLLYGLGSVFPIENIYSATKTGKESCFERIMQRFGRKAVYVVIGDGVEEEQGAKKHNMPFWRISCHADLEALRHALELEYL
Target sequence (Q15475 whole entry, looked up): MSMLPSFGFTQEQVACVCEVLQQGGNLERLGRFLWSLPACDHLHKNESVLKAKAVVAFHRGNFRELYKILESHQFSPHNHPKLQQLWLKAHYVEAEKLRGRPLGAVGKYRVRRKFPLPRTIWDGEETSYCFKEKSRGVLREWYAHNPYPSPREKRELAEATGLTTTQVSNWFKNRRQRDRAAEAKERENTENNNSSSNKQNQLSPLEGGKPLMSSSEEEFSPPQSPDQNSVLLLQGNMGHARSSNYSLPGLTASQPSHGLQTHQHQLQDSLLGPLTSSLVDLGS
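Homogeneous AlphaScreen proximity assay pairing GST-Six1 with His-tagged Eya2 (added as 5X mix: 250 nM and 500 nM) in 50 mM Tris pH 8.0, 300 mM NaCl, 1 mM TCEP. Glutathione donor and nickel acceptor beads; 1 h, 37 °C, dark.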
PINK1 modulator = modulators of PINK1 expression | Potency, µM (series often up to 76.6 µM), for the others: at the highest dose activation (PINK1 increase), usual class: activators | PINK1 immunofluorescence, high-content cytometry, 24 h | 410,000 compounds, 0.2% hits; active = well fitted activation curve with a large enough effect; inconclusive = small, poorly fitted or top-dose-only effect; inactive = flat fitted curve, though single readings scatter; cell line not stated here;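 also: potency is read from the fitted curve at half-maximal effect; % of control where 0% means no effect; nearly all actives have a fitted effect of over 65% in size; a mitochondrial uncoupler was the plate control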
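Compound titrations (5 concentrations, 24 h) on a stable cell line; DMSO and CCCP controls. Endpoint: fixed-cell PINK1 immunofluorescence with mitochondrial, cell and nuclear markers, scanned by microplate cytometer.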
D2 potentiator = potentiates the human D2 dopamine receptor allosterically; P14416; DiscoveRx D2 beta-arrestin cells, luminescence, 90 min; 100% = 57 uM dopamine signal; potentiation, % (no concentration beside the values); 360,000 compounds, 0.23% hits; active = potentiation of 50% or more; inconclusive = 30% to 50%; inactive = 30% or less;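 also: compound concentration not given in the record; tested on top of an EC20 dose of dopamine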
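D2 cells co-treated with compound plus 50 nM dopamine (EC20) for 90 min at 37 deg C to detect potentiation. Beta-arrestin recruitment was read as enzyme-fragment luminescence after 1 h at ambient temperature. Full response was set by 57 uM dopamine.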
TRPML1 inh = blocks the human TRPML1 channel; 390,000 compounds, 0.02% hits; TRPML1-inducible cells, Ca2+ dye fluorescence, FDSS; hits give low values; inhibition of EC80 agonist-evoked calcium signal; AID 624415; activity change, negative = inhibition, % (concentration not given with the values); in the data active means activity change below about -50%; inconclusive means about -30% to -50%; inactive means above about -30%;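 also: stimulus is agonist 54-4 at its EC80 concentration; % is scaled to controls: 0 for no effect and ±100 for the full control effect; the text of the record puts the active cut at -80%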
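Tet-induced TRPML1-DL cells loaded with Ca8 no-wash calcium dye were read kinetically on FDSS. Compound addition was followed by EC80 agonist 54-4 (4 uM final); inhibition was read over 110 s.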
* hit, by the source's call; [ ] = another dose, or the depositor's remark.

Results for Cc1ccccc1CCNC(=O)c1cc(C2CC2)nc2c1cnn2C(C)C ?
TRPML1 agonist: 2.6; D2 agonist: 2.4; Six1-Eya2 blk: 7.0; PINK1 modulator: 4.4%; D2 potentiator: -4.5; TRPML1 inh: -3.3

Results for COc1ccccc1CNC(=O)COc1ccccc1C(=O)c1cnn(-c2ccccc2)c1 ?
TRPML1 agonist: 0.6; D2 agonist: 5.7; Six1-Eya2 blk: -7.5; PINK1 modulator: -1.4%; D2 potentiator: 5.3; TRPML1 inh: -10.8

What do the screens show for `CC(C)[C@H](NC(=O)N1CCn2c1nc1ccccc12)C(=O)NC1CCCCC1`?
TRPML1 agonist: -0.2; D2 agonist: 7.6; Six1-Eya2 blk: 4.2; PINK1 modulator: 6.3%; D2 potentiator: -15.5; TRPML1 inh: 8.5

Results for COc1cccc(C2=Cc3ccc(F)cc3C(CC(C)=O)N2c2ccc(-c3cc(OC)c(OC)c(OC)c3)cc2)c1 (stereo unspecified) ?
TRPML1 agonist: 0.3; Six1-Eya2 blk: 18.4; PINK1 modulator: 0.3%

What do the screens show for `CC(=O)Nc1ccc(C2(c3ccc(NC(C)=O)cc3)C(=O)Nc3ccccc32)cc1`?
TRPML1 agonist: 0.4; D2 agonist: 4.1; Six1-Eya2 blk: -6.3; PINK1 modulator: 0.0%; D2 potentiator: -3.7; TRPML1 inh: 12.0

What do the screens show for `COc1ccc(C(C)(NC(C)=O)c2nc(-c3cccc(F)c3)cs2)cc1` (stereo unspecified)?
TRPML1 agonist: -0.3; D2 agonist: 10.5; Six1-Eya2 blk: 0.2; PINK1 modulator: 0.6%; D2 potentiator: -3.2

How did COc1ccc(NC(=O)CO/N=C2\CCCc3nonc32)cc1 do in these assays?
TRPML1 agonist: -0.7; D2 agonist: -0.6; Six1-Eya2 blk: 4.2; PINK1 modulator: 0.0%; D2 potentiator: -22.8; TRPML1 inh: 11.0

What do the screens show for `CCOC(=O)c1ccc(NC(=O)CN(C)S(=O)(=O)c2ccc(Br)s2)cc1`?
TRPML1 agonist: 1.0; D2 agonist: 3.6; Six1-Eya2 blk: -14.3; PINK1 modulator: 8.5%; D2 potentiator: -7.0; TRPML1 inh: inconclusive

What do the screens show for `CCN1CCN(c2nc(Nc3cccc(F)c3)nc(N)c2[N+](=O)[O-])CC1`?
TRPML1 agonist: 0.8; D2 agonist: -3.2; Six1-Eya2 blk: -21.9; PINK1 modulator: 1.8%; D2 potentiator: -29.4; TRPML1 inh: 7.2

What do the screens show for `Cc1cc(NC(=O)CSc2c(C)[nH]c3ccccc23)no1`?
TRPML1 agonist: -0.1; D2 agonist: -3.1; Six1-Eya2 blk: -2.6; PINK1 modulator: 1.2%; D2 potentiator: -9.9; TRPML1 inh: -2.8

What do the screens show for `COC(=O)c1ccccc1OC(=O)c1ccc(Br)o1`?
TRPML1 agonist: 1.4; D2 agonist: -1.2; Six1-Eya2 blk: 2.8; PINK1 modulator: 0.0%; D2 potentiator: -22.8; TRPML1 inh: -8.8

Results for Cc1c(C(=O)NCCc2ccc(Cl)cc2)sc2nc3n(c(=O)c12)CCC3 ?
TRPML1 agonist: 0.5; D2 agonist: -0.7; Six1-Eya2 blk: -6.1; PINK1 modulator: 0.4%; D2 potentiator: -3.0; TRPML1 inh: -3.6

How did O=C(c1cc(-c2ccccc2Cl)nc2ccccc12)N1CCN(c2ccccn2)CC1 do in these assays?
TRPML1 agonist: -0.2; D2 agonist: 2.5; Six1-Eya2 blk: 3.3; PINK1 modulator: -0.9%; D2 potentiator: -3.4; TRPML1 inh: -10.0

What do the screens show for `CCOC(=O)CSc1nc2c(c(=O)n1-c1ccc(OCC)cc1)SCC2`?
TRPML1 agonist: 2.3; D2 agonist: -0.6; Six1-Eya2 blk: 3.7; PINK1 modulator: 1.0%[38.3 µM]; D2 potentiator: 1.6; TRPML1 inh: 13.6

What do the screens show for `CC(C)(C)CN1CCNC(=O)C1CC(=O)NCCc1cnn(-c2ccccc2)c1` (stereo unspecified)?
TRPML1 agonist: 0.0; D2 agonist: -1.3; Six1-Eya2 blk: 6.4; PINK1 modulator: 0.2%; D2 potentiator: -2.0; TRPML1 inh: -8.8

What do the screens show for `CCN1C(=O)/C(=C\N(C)C)S/C1=N\S(=O)(=O)c1ccccc1`?
TRPML1 agonist: 0.6; D2 agonist: -3.3; Six1-Eya2 blk: 13.0; PINK1 modulator: 0.4%; D2 potentiator: -1.6; TRPML1 inh: -0.1

Results for O=C(c1cc2cc(Br)ccc2o1)N1CCN(c2ccccc2)CC1 ?
TRPML1 agonist: 1.8; D2 agonist: 0.7; Six1-Eya2 blk: -2.1; PINK1 modulator: 10.6%; D2 potentiator: -3.5; TRPML1 inh: 2.0

Results for CCOc1ccc(S(=O)(=O)N2CCCCC2)cc1NC(=O)C1CCC1 ?
TRPML1 agonist: 0.1; D2 agonist: -1.1; Six1-Eya2 blk: -2.6; PINK1 modulator: 2.8%; D2 potentiator: -4.3; TRPML1 inh: -1.7

How did O=C(Cn1nc(Cc2cccnc2)c2ccccc2c1=O)Nc1cccnc1Cl do in these assays?
TRPML1 agonist: 1.7; D2 agonist: -5.1; Six1-Eya2 blk: 11.6; PINK1 modulator: -1.4%; D2 potentiator: -12.6; TRPML1 inh: -3.5

What do the screens show for `COc1cc(/C=C2\C(=N)N3N=C(C)SC3=NC2=O)cc(Cl)c1OCCOc1ccc(NC(C)=O)cc1`?
TRPML1 agonist: 1.4; D2 agonist: 2.6; Six1-Eya2 blk: -2.3; PINK1 modulator: -0.7%; D2 potentiator: 1.8; TRPML1 inh: -7.8

Results for CCc1cc2ccc(C)cc2nc1SCC(=O)c1ccc(NC(C)=O)cc1 ?
TRPML1 agonist: 1.1; D2 agonist: 2.4; Six1-Eya2 blk: -4.8; PINK1 modulator: -1.7%[38.3 µM]; D2 potentiator: 2.6; TRPML1 inh: -11.2

Results for CC(=O)Nc1ccc(C(=O)NNS(=O)(=O)c2ccc(C)cc2)cc1 ?
TRPML1 agonist: -0.8; D2 agonist: -3.5; Six1-Eya2 blk: -2.9; PINK1 modulator: 2.3%; D2 potentiator: -2.3; TRPML1 inh: 1.1

How did CC(OC(=O)c1cccs1)C(=O)NCC1CCCO1 (stereo unspecified) do in these assays?
TRPML1 agonist: -0.1; D2 agonist: -3.3; Six1-Eya2 blk: 3.4; PINK1 modulator: 1.1%; D2 potentiator: -8.9; TRPML1 inh: 8.4

Results for CCCCC(=O)Nc1cc(OCC)c(NC(=O)c2ccccc2[N+](=O)[O-])cc1OCC ?
TRPML1 agonist: 1.0; D2 agonist: 1.8; Six1-Eya2 blk: -3.3; D2 potentiator: -12.8; TRPML1 inh: 0.9

What do the screens show for `Cc1ccc2cc3cc(C(=O)Nc4ccc(F)cc4Cl)oc3nc2c1`?
TRPML1 agonist: 1.5; PINK1 modulator: 0.2%; TRPML1 inh: -28.6

How did Oc1c(C(c2ccccc2F)N2CCOCC2)sc2nc(-c3ccco3)nn12 (stereo unspecified) do in these assays?
TRPML1 agonist: 2.1; PINK1 modulator: 3.5%; TRPML1 inh: -0.7

What do the screens show for `CCCCOc1cccc(NC(=O)CSc2nccn2C)c1`?
TRPML1 agonist: 0.9; D2 agonist: 1.6; Six1-Eya2 blk: -5.4; PINK1 modulator: 0.2%; D2 potentiator: -2.4; TRPML1 inh: 17.3

How did Cc1cccc(NC(=O)c2cccc(N3C(=O)C4CCC(C)CC4C3=O)c2)c1C (stereo unspecified) do in these assays?
TRPML1 agonist: 0.3; D2 agonist: -2.0; Six1-Eya2 blk: 0.4; PINK1 modulator: 4.4%; D2 potentiator: -1.6; TRPML1 inh: -6.7

Results for Cc1c(C(=O)Nc2ccc(Nc3ccccc3)cc2)cccc1[N+](=O)[O-] ?
D2 agonist: -0.4; Six1-Eya2 blk: -0.6; PINK1 modulator: 15.0%; D2 potentiator: 6.8

What do the screens show for `CCOC(=O)c1sc2nc3c(SCCC#N)cc(C(=O)c4cc(F)ccc4O)cn3c(=O)c2c1C`?
TRPML1 agonist: 0.2; D2 agonist: 6.7; Six1-Eya2 blk: 0.3; PINK1 modulator: 8.3%; D2 potentiator: inconclusive; TRPML1 inh: 7.7

How did Cc1ccc(C)c(S(=O)(=O)Nc2ccc(C(=O)NCCCN3CCCC3=O)cc2)c1 do in these assays?
TRPML1 agonist: -0.3; D2 agonist: -0.3; Six1-Eya2 blk: 7.6; PINK1 modulator: 1.6%; D2 potentiator: 12.5; TRPML1 inh: -8.5

Results for CCc1nc(CNC(=O)c2cc(OC)c(OC)c(OC)c2)no1 ?
TRPML1 agonist: -1.0; D2 agonist: -0.4; Six1-Eya2 blk: 6.1; PINK1 modulator: -0.9%; D2 potentiator: -6.4; TRPML1 inh: -21.3

How did COc1ccc(C(=O)NCC(c2cccnc2)N2CCc3ccccc3C2)cc1OC (stereo unspecified) do in these assays?
TRPML1 agonist: -1.1; PINK1 modulator: 1.3%; TRPML1 inh: 37.4

What do the screens show for `Cc1ccccc1OCc1nc2c3cnn(-c4ccccc4Br)c3ncn2n1`?
TRPML1 agonist: 1.1; PINK1 modulator: 0.8%; TRPML1 inh: 20.7

What do the screens show for `CN(C)c1nc(-c2ccccc2)ns1`?
TRPML1 agonist: 0.7; D2 agonist: -1.0; Six1-Eya2 blk: 0.0; PINK1 modulator: 14.9%; D2 potentiator: -8.8; TRPML1 inh: 22.2

What do the screens show for `CC(C)C(=O)Nc1ccc2c(c1)nc(CCN1CCCCC1)n2C`?
D2 agonist: -2.8; Six1-Eya2 blk: 3.5; PINK1 modulator: 5.1%; D2 potentiator: -4.1

Results for O=C(Cc1ccc(Cl)cc1)N1CCC2(CC1)NCCc1[nH]cnc12 ?
TRPML1 agonist: 0.0; D2 agonist: -6.4; Six1-Eya2 blk: -3.8; PINK1 modulator: 1.4%; D2 potentiator: -5.2; TRPML1 inh: -9.2

How did Cc1ccc(-c2nnc(NC(=O)CCS(=O)(=O)c3ccccc3)o2)c(C)c1 do in these assays?
TRPML1 agonist: 0.0; D2 agonist: -3.4; Six1-Eya2 blk: 0.0; PINK1 modulator: 2.7%; D2 potentiator: -19.8; TRPML1 inh: -14.7

Results for COc1cc(OC)c(N(C)S(=O)(=O)c2cccc(C(=O)OCC(=O)NCc3ccco3)c2)cc1Cl ?
TRPML1 agonist: 0.6; D2 agonist: 8.0; Six1-Eya2 blk: -11.1; PINK1 modulator: 5.9%; D2 potentiator: 2.2; TRPML1 inh: 11.2

What do the screens show for `Cc1cc2c(C)nc(N/N=C/c3ccc(F)cc3)nc2o1`?
TRPML1 agonist: 0.0; D2 agonist: -5.6; Six1-Eya2 blk: -3.9; PINK1 modulator: 0.4%; D2 potentiator: -13.0; TRPML1 inh: 3.1

How did CCOc1cc(N2CCOCC2)c(OCC)cc1NC(=O)c1ccc(C)s1 do in these assays?
TRPML1 agonist: 1.2; D2 agonist: -4.3; Six1-Eya2 blk: -7.1; PINK1 modulator: 2.9%; D2 potentiator: -2.4; TRPML1 inh: 9.2

Source: PubChem
